gsp ag – agonists of gsp mutant (McCune-Albright syndrome); Potency, µM (top dose mostly 76.9 µM), for the others: at the highest dose activation (cAMP increase), usual class: activators; gsp mutant cells, cAMP HTRF, 30 min; control for the full effect not named in the record; AID 624287; 0.13% of 340,000 active; active = well fitted activation curve with a large enough effect; inconclusive = small, poorly fitted or top-dose-only effect, or another doubt; inactive = no such curve, though single readings can be large or run the other way; cell line not stated here;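 further: phosphodiesterase inhibitor Ro 20-1724 added with compounds to block cAMP breakdown; potency means the concentration at half of the fitted maximal effect; nearly all actives have a fitted effect of over 60% in size; about a fifth of the inactives were tested at one dose only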
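Cells stably selected in G418 were plated at 2000/well, grown 16-24 hr, then given compounds in DMSO with the PDE inhibitor […] (300 uM solution added) for 30 min at 37C; cAMP was read by HTRF.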
ClpP mod – qHTS Assay for Activators of ClpP. Potency, µM (titrated, usually from 57.5 µM), for the others: at the highest dose activity change, negative = active. 1.9% of 340,000 active. purified B. subtilis ClpP, FRET peptide cleavage, 20 min. ATP-dependent Clp protease proteolytic subunit (Bacillus subtilis (strain 168)), P80244; active = well fitted falling curve with a large enough effect; inconclusive = small, poorly fitted or top-dose-only effect; inactive = no such curve, though single readings can be large or run the other way; further: potency means the concentration at half of the fitted maximal effect; the source files actives as falling curves though it sought activators and does not explain the sign; nearly all actives have a fitted effect of over 65% in size; many hits overshoot -100%
Target sequence (P80244 whole entry, looked up): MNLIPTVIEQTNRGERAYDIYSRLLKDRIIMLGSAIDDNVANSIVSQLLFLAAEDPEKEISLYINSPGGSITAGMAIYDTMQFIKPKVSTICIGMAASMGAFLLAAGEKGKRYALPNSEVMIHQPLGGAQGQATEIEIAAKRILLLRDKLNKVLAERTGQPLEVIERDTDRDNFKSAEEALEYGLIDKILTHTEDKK
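Purified B. subtilis ClpP, 10 microg/mL final in Tris/HCl pH8 with KCl, BSA, glycerol and Tween-20, cleaved an Abz/nitrotyrosine-quenched decapeptide. Fluorescence (ex 320, em 430) was read at 0 and 20 min at room temperature. Delta was normalized to 5.8 microM ADEP and DMSO/no-enzyme controls.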
D2 ag – human D2 receptor agonism in beta-arrestin assay; P14416; DiscoveRx PathHunter D2 beta-arrestin, luminescence, 90 min; 100% = 57 uM dopamine signal; activation, % (concentration not given with the values); 0.084% of 360,000 active; in the data active = activation above about 40%; inconclusive = about 15% to 40%; inactive = below about 15%; further: compound concentration not given in the record; the text of the record calls up to 30% inactive
Target sequence (P14416 whole entry, looked up): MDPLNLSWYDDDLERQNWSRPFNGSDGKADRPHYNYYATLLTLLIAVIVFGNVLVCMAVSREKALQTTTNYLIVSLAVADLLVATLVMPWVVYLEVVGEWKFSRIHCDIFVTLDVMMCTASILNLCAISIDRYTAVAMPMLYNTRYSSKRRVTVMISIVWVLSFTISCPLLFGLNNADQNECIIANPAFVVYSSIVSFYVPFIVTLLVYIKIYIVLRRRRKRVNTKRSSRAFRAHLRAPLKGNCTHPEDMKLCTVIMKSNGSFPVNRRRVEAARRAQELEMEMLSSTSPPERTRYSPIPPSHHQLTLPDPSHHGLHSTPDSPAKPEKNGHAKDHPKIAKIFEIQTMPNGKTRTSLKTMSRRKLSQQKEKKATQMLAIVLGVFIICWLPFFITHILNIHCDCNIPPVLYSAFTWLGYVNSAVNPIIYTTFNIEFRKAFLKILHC
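DiscoveRx PathHunter D2 beta-arrestin cells (2,100/well) attached overnight, then compound-stimulated 90 min at 37 C in HBSS/10 mM HEPES/0.1% Tween-20 buffer; beta-galactosidase complementation read by luminescence after 1 h at ambient temperature. Dopamine 57 uM final (EC100) as control.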
Menin-MLL FL inh – inhibitors of human menin-MLL interaction, wild-type MLL peptide | Fluorescence polarization, fluorescein-MLL peptide displacement from menin | FP activity change, % at 61.4 µM | 290,000 tested, under 10 active | AID 1766; inconclusive = falling polarisation curve, or a change in total fluorescence; inactive = total fluorescence flat and polarisation flat or rising; no compound was filed as active; the % refers to the polarisation; negative = inhibition;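 further: % of control where 0% means no effect; inhibitors lower the polarisation; unlabelled MLL peptide was the positive control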
Sfp PPTase inh – blocks B. subtilis Sfp PPTase activity; Potency, µM, for the others: max response, negative = inhibition, most hits filed as inhibitors; 3.5% of 310,000 active; Biochemical Sfp PPTase activity, qHTS; AID 1490; active means well fitted inhibition curve with a large enough effect; inconclusive means small, poorly fitted or top-dose-only effect, or another doubt; inactive means no such curve, though single readings can be large or run the other way;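 further: the enzyme is Sfp with the accession as filed and its product quenches rhodamine fluorescence; potency means the concentration at half of the fitted maximal effect; 0% = enzyme reaction without inhibitor and -100% = no enzyme wells; top concentration of the series not given in the record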
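Fluorescence-quenching assay with 15 nM Sfp, 5 uM rhodamine-CoA and 12.5 uM BHQ-2-labelled ybbR peptide in pH 7.6 Hepes/MgCl2 buffer. Enzyme was pre-incubated with compound for 15 min at room temperature. Rate was taken from the 30-min fluorescence change (525/598 nm).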
PINK1 modulator – changes PINK1 expression | PINK1 immunofluorescence, high-content cytometry, 24 h | Potency, µM (top dose mostly 76.6 µM), for inactives: top-dose activation (PINK1 increase), actives largely listed as activators | 0.2% of 410,000 active; active = well fitted activation curve with a large enough effect; inconclusive = small, poorly fitted or top-dose-only effect; inactive = flat fitted curve, though single readings scatter; cell line not stated here;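 further: potency means the concentration at half of the fitted maximal effect; % of control where 0% means no effect; nearly all actives have a fitted effect of over 65% in size; a mitochondrial uncoupler was the plate control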
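PINK1 protein level read as immunofluorescence by microplate cytometer in a fixed, stained stable cell line after 24 h exposure to five compound concentrations, with CCCP as control.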
gsp antag – gsp mutant antagonism; gsp-mutant cells, cAMP HTRF, 30 min; control for the full effect not named in the record; Potency, µM (series often up to 76.9 µM), for inactives: top-dose activity change, negative = inhibition, actives largely listed as inhibitors; 0.4% of 340,000 active; AID 624288; active = falling curve of any shape with a large fitted effect; inconclusive = falling curve, mostly with a smaller effect; inactive = flat or rising curve; cell line not stated here;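 further: intracellular cAMP measured with PDE inhibitor Ro 20-1724 present during compound exposure; potency means the concentration at half of the fitted maximal effect; on the % scale 0 is the no-effect control and ±100 the full control effect; nearly all actives have a fitted effect of over 65% in size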
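G418-selected cells were plated in DMEM/10% FBS for 16-24 h at 37C, then treated with compounds plus the PDE inhibitor […] (300 uM solution added) for 30 min at 37C. Intracellular cAMP was measured by HTRF after 30 min lysis at room temperature.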
Starred values were filed as active, the others as inactive; u = inconclusive; x = no result given; & = joins results of further samples; [ ] = remark or other dose.

SMILES	gsp ag	ClpP mod	D2 ag	Menin-MLL FL inh	Sfp PPTase inh	PINK1 modulator	gsp antag
N#Cc1cccc(NC(=O)NCCc2c[nH]c3ccccc23)c1	-29%	2.7%	1.6	0.4	2%	1.6%	0%
CN(NC1OC(=O)c2ccccc21)c1ncc(C(F)(F)F)cc1Cl (stereo unspecified)	-2%	-6.4%	0.1	1.5	7%	0.1%	-4%
CC1(OC(=O)CCc2ccccc2)C(=O)C=C2C=C(c3ccc(C#N)cc3)N(C3CCCCC3)C=C2C1=O (stereo unspecified)	x	0.4%	7.4	-4.9[11.7 µM]	12%&7%	1.8%	-15%
CCC(C)(C)NC(=O)C(c1ccco1)N(C(=O)c1csnn1)c1cccc(F)c1 (stereo unspecified)	-21%	-2.2%	-1.2	-0.1	19%	0.4%[38.3 µM]	3%
CCOC(=O)N1CCN(C(=O)c2cn(CC)c3ccc(S(=O)(=O)N4CCOCC4)cc3c2=O)CC1	17%	-13%	6.6	x	10%	2.3%	10%
Brc1ccc(-c2noc(COc3ccc4c(c3)CCC4)n2)o1	0%	-4.3%	3.7	2.4	-12%	0.2%	9%
c1ccc(CSc2ncnc3ccccc23)cc1	u	x	4.4	3.5	u	-3.0%	7%
C[C@H](C(O)c1ccccc1)N(C)C(=O)CN (stereo partly specified)	2%	0.6%	-3.6	0.9	14%	0.1%	9%
Cc1ccc(C(=O)N/C(=C\c2ccc(-c3ccccc3[N+](=O)[O-])o2)C(=O)NCCCN(C)C)cc1	-37%[inhibitor][15.4 µM]	x	2.8	-11	-11%	-0.2%	-1%
COC(=O)CCc1nc2c(C#N)c(-c3ccc(Cl)cc3)ccn2n1	-5%[15.4 µM]	0.2%	0.5	-5.8	2%	1.4%	1%
CC(=O)Nc1ccc(NC(=O)Cn2c(=O)n(-c3ccc(C)cc3)c(=O)c3oc4ccccc4c32)cc1	0%[15.4 µM]	x	5.6	0.5	-3%	-0.6%	u
COc1ccc(CNc2ncnc(N)n2)cc1	0%	-1.0%	-1.1	-2.0	13%	11%	5%
CSc1nc2c(cc1C#N)CCC2	-1%[15.4 µM]	-3.5%	-4.0	3.9	-13%	1.5%	6%
CC(C)c1nc(SCC(=O)Nc2ccc3c(c2)OCCO3)c2c(=O)n(C)c(=O)n(C)c2n1	0%	0.0%	-1.5	4.6	-3%	1.5%	-13%
O=C(Cc1ccccc1Cl)NCCCn1ccnc1	8%	-4.2%	-2.9	-0.4	5%	5.0%	6%
COc1ccccc1-c1nccc(NCc2cccs2)n1	x	x	x	1.4	79µM*	7.3%	x
CCOC(=O)N1CCN(C(=O)c2cnsn2)CC1	16%	-1.5%	-1.0	3.7	12%	0.3%	0%
Cc1nn(C(C)C(=O)NCc2ccccc2Cl)c(=O)c2c1sc1ccccc12 (stereo unspecified)	u	-29%	-1.6	5.5	13%	0.0%	-8%
C=CCc1cc(Cl)ccc1OCCNCCN1CCOCC1	18%[15.4 µM]	x	-1.5	-0.9	u	0.8%	-21%
O=C(CN1C(=O)S/C(=C\C=C\c2ccccc2)C1=O)Nc1ccccc1C(=O)O	-1%	-6.6%	3.7	7.4	-4%	0.0%	-15%
CCOC(=O)c1c(-c2cccc3ccccc23)csc1NC(=O)C1C2CCC(O2)C1C(=O)O (stereo unspecified)	6%	-11%	-1.4	6.7	2%	-0.8%	-13%
CCO[C@@H]1OC(C(=O)N2CCOCC2)=C[C@H](C2CC2)[C@H]1CCCO	x	-0.7%	-0.8	-1.7	1%	1.5%	11%
C/C(=N/NC(=O)c1cc(C)[nH]n1)c1ccco1	-7%[15.4 µM]	x	-1.5	1.1	13%	-0.5%	-2%
N#Cc1nc(-c2ccc(OCc3ccccc3)cc2)oc1NCCCN1CCOCC1	-5%	-3.9%	-0.3	-5.5	45µM*	1.8%	-14%
O=C(NN=C1CCCC1)c1cc(-c2ccc(F)cc2)nc2ccccc12	-5%	x	0.7	1.5	-10%	2.6%	-2%
CCOc1cc(-c2noc(CCC(=O)N3CCOCC3)n2)ccc1OC	-39%[inhibitor]	2.4%	2.3	-1.0	4%	1.0%	11%
CCC(=O)c1cn(CC(=O)Nc2cccc(OC)c2)c2ccccc12	-28%	x	-1.1	2.5	0%	8.9%	6%
O=C(Cn1nc(C(=O)O)c2ccccc2c1=O)NCc1ccco1	2%[15.4 µM]	x	1.8	-0.1	7%	2.5%	-3%
COc1ccc(N(CC(=O)N2CCN(c3cc(C)ccc3C)CC2)S(=O)(=O)c2c(C)noc2C)cc1	u	0.2%&0.4%	-3.8	x	1%	-0.9%&1.2%	9%
COc1ccc(Cl)cc1NC(=O)COC(=O)CCNS(=O)(=O)c1cccs1	-1%[15.4 µM]	1.6%	-4.0	x	x	-0.9%	-13%
COc1ccc(NC(=S)Nc2ccc(S(=O)(=O)N3CCOCC3)cc2)c(OC)c1	u	1.4%	-1.6	-7.4	-30%	2.2%	4%
O=C(Cc1ccc(S(=O)(=O)N2CCOCC2)s1)N(Cc1ccccc1)c1ccccc1	-7%[15.4 µM]	1.0%	0.3	x	x	1.0%	-13%
O=C(/C=C/c1ccco1)N1CCN(c2ccccc2)CC1	7%[15.4 µM]	x	3.9	3.6	3%	-0.2%	11%
CN(C(=O)c1cc(-c2cccs2)nn1-c1ccccc1)C1CCS(=O)(=O)C1 (stereo unspecified)	3%	1.9%	-2.7	x	x	3.0%	x
CCn1c(SCC(=O)OC)nnc1-c1ccccc1	19%[15.4 µM]	x	-2.3	-2.1	18%	-0.2%	-2%
COc1ccc(Cl)cc1C(=O)NCCc1ccc(S(=O)(=O)NC(=O)NC2CCCCC2)cc1	x	0.3%	2.2	-2.2	7%&12%&23%&21%&7%&11%&30%	-0.2%	u
O=C(OCc1ccccc1)N1CCC2CC1c1ccc(N3CCOCC3)cc12 (stereo unspecified)	6%	0.0%	-5.0	x	x	1.0%	x
CN(Cc1nc(-c2ccc(C(F)(F)F)cc2)no1)C1CCOCC1	-74%[inhibitor]	-0.2%	-5.2	3.3	-11%	1.5%	4%
Cc1ccc(S(=O)(=O)N2CCCC2C(=O)n2nc(C)cc2C)cc1 (stereo unspecified)	-32%[inhibitor]	-5.3%	-5.4	0.1	27%	16%	7%
COc1ccc(C(C)NC(=O)C23CC4CC(CC(C4)C2)C3)cc1OC (stereo unspecified)	-16%	-2.2%	-1.7	5.1	12%	1.3%	-6%
O=C(O)c1cccnc1SCc1cccc(Cl)c1	13%[15.4 µM]	-0.3%	0.9	-3.2	16%	2.2%&1.0%	x
O=C(Nc1cnn(Cc2ccc(F)cc2)c1)C(c1ccccc1)c1ccccc1	-36%[inhibitor]	-1.4%	-3.5	0.1	22%	u	-31%
COc1ccc(-c2csc(NC(=O)C3CSC4(C)CCC(=O)N34)n2)cc1OC (stereo unspecified)	10%	-3.5%	4.5	x	x	-6.4%	2%
Cc1ccc(-n2nnc3c(=O)n(CC(=O)NCC4CCCO4)cnc32)cc1 (stereo unspecified)	u	-0.6%	0.9	-1.1	6%	6.3%[38.3 µM]	31%
CCC1(c2ccccc2)SC(=O)NC1=O (stereo unspecified)	1%	-1.5%	-3.4	x	x	1.3%	7%
CCO[C@H]1c2c(ccc3ccc(=O)oc23)OC(C)(C)[C@H]1O	x	4.6%	0.7	x	x	0.1%	-2%
O=C(c1ccc(S(=O)(=O)N2CCCC2)cc1)N1CCCc2ccccc21	-16%	-8.9%	-1.4	4.2	8%	1.7%	-3%
O=C(OCC(=O)N1CCCCCC1)c1ccc(S(=O)(=O)N2CCOCC2)cc1	-3%[15.4 µM]	x	-0.3	2.2	-21%	1.6%	-5%
CC12CCC(=O)N1C(C(=O)NNC(=O)COc1cccc(C(F)(F)F)c1)CS2 (stereo unspecified)	-89%[inhibitor]	-1.0%	-2.7	x	x	-0.4%	9%
CN(CC(=O)Nc1cccc(F)c1)C(=O)c1cn(-c2ccccc2)nc1-c1ccccc1	-7%	-1.7%	0.9	x	14%	3.3%	u
Cc1c(C(=O)N2CCOCC2)c(S(=O)(=O)Nc2ccc(OC(F)(F)F)cc2)c(C)n1C	1%	1.5%	-1.3	-7.4	10%	1.7%	7%
CC(C)c1onc(C(=O)N(C)C2CCCCC2)c1[N+](=O)[O-]	19%	x	-1.4	0.2	6%	-0.5%	17%
CCc1ccccc1NC(=S)N(CCCN1CCOCC1)Cc1cccs1	-2%[15.4 µM]	-1.5%	1.4	-2.2	-3%	-0.8%	-35%
C=CCSc1nnc(-c2ccccc2N=Cc2c(C)[nH]n(-c3ccccc3)c2=O)c(=O)[nH]1	-5%	-1.9%	2.0	6.0	14%	-0.6%	u
Fc1ccc(CSc2nsc(SCc3ccc(F)cc3)n2)cc1	-3%	-18%	-5.5	-0.5	-12%	3.6%	2%
COc1ccccc1NC(=O)CCN1CCN(c2ccc(Cl)cc2)CC1	5%	-3.1%	-3.4	0.3	3%	-0.3%	1%
CCSc1nc2nc(C)cc(C)n2n1	u	-15%	-1.8	2.6	12%	0.1%	10%
COc1ccc(C(=O)N/C(=C/c2cccc3ccccc23)C(=O)NCCc2c[nH]c3ccccc23)cc1OC	u	-0.7%	-6.4	7.2	11%	-0.5%	-19%
CCN1C(=O)[C@H]2[C@H]3CN=C(SCc4ccccc4)N3[C@@](Cc3ccccc3)(C(=O)OC)[C@H]2C1=O	x	-3.2%	-2.7	x	x	1.3%	-5%
COC(=O)CN(C)C(=O)c1ccccc1OC1CCN(S(C)(=O)=O)CC1	-31%[inhibitor]	x	5.3	0.2	2%	1.5%	3%
CCn1nccc1C(=O)Nc1ccc(C)c(C)c1	0%	-0.3%	1.2	-0.4	-1%	0.5%	5%
Cc1cccc(NC(=O)CSCC(=O)NNC(=O)c2ccoc2C)c1	-9%	-1.9%	1.4	x	7%	2.3%	3%

High-throughput results (PubChem)
